Menin MLL FP FL: menin-MLL binding inhibition, fluorescein peptide; Fluorescence polarization, fluorescein-MLL peptide displacement from menin; FP activity change, % at 61.4 µM; 290,000 tested, under 10 active; inconclusive = falling polarisation curve, or a change in total fluorescence; inactive = total fluorescence flat and polarisation flat or rising; no compound was filed as active; the % refers to the polarisation; negative = inhibition;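 further: % of control where 0% means no effect; inhibitors lower the polarisation; unlabelled MLL peptide was the positive control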
ClpP mod: qHTS Assay for Activators of ClpP; purified B. subtilis ClpP, FRET peptide cleavage, 20 min; Potency, µM (doses to about 57.5 µM), without a hit: at the top dose activity change, negative = active; 340,000 compounds, 1.9% hits; AID 651965, 2013; active = well fitted falling curve with a large enough effect; inconclusive = small, poorly fitted or top-dose-only effect; inactive = no such curve, though single readings can be large or run the other way; further: potency means the concentration at half of the fitted maximal effect; the source files actives as falling curves though it sought activators and does not explain the sign; nearly all actives have a fitted effect of over 65% in size; many hits overshoot -100%
Target sequence (P80244 whole entry, looked up): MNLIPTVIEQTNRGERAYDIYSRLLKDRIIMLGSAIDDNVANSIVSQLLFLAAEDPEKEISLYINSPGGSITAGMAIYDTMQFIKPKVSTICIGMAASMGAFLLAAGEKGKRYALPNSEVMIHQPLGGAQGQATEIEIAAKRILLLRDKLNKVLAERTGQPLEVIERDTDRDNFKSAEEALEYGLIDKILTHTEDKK
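ClpP 10 microg/mL final, pH 8 Tris/KCl buffer with BSA, glycerol, Tween-20; compound pinned in; FRET-FV substrate; RT 20 min; Ex320/Em430; ΔFRET vs ADEP 5.8 microM, DMSO, no enzyme.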
gsp agonist: gsp mutant agonism; gsp mutant cells, cAMP HTRF, 30 min; control for the full effect not named in the record; Potency, µM (series often up to 76.9 µM), without a hit: at the top dose activation (cAMP increase), most hits filed as activators; 340,000 compounds, 0.13% hits; active = well fitted activation curve with a large enough effect; inconclusive = small, poorly fitted or top-dose-only effect, or another doubt; inactive = no such curve, though single readings can be large or run the other way; cell line not stated here;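 further: phosphodiesterase inhibitor Ro 20-1724 added with compounds to block cAMP breakdown; potency means the concentration at half of the fitted maximal effect; nearly all actives have a fitted effect of over 60% in size; about a fifth of the inactives were tested at one dose only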
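Cells stably selected in G418 were plated at 2000/well, grown 16-24 hr, then given compounds in DMSO with the PDE inhibitor […] (300 uM solution added) for 30 min at 37C; cAMP was read by HTRF.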
gsp antagonist: gsp mutant antagonism; gsp-mutant cells, cAMP HTRF, 30 min; control for the full effect not named in the record; Potency, µM (highest dose often 76.9 µM), for inactives: top-dose activity change, negative = inhibition, usual class: inhibitors; 340,000 compounds, 0.4% hits; AID 624288; active = falling curve of any shape with a large fitted effect; inconclusive = falling curve, mostly with a smaller effect; inactive = flat or rising curve; cell line not stated here;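 further: intracellular cAMP measured with PDE inhibitor Ro 20-1724 present during compound exposure; potency means the concentration at half of the fitted maximal effect; on the % scale 0 is the no-effect control and ±100 the full control effect; nearly all actives have a fitted effect of over 65% in size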
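HTRF cAMP read-out (cAMP-d2 plus anti-cAMP antibody-K in lysis buffer, 30 min RT). Before lysis, cells are exposed to compounds with […] for 30 min at 37C in DPBS containing Ca/Mg, BSA and Tween 20.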
TRPV1 PAM: enhances activation of the human vanilloid receptor TRPV1; TRPV1-expressing cells, Fluo-8 calcium influx, capsaicin EC20 potentiation; host cell line not named in the record; control for the full effect not named in the record; 320,000 compounds, 0.02% hits; potentiation, % at 8.33 µM; Q8NER1; active means potentiation above 80%; inconclusive means 30% to 80%; inactive means below 30%; further: 0% is about no effect
Target sequence (Q8NER1 whole entry, looked up): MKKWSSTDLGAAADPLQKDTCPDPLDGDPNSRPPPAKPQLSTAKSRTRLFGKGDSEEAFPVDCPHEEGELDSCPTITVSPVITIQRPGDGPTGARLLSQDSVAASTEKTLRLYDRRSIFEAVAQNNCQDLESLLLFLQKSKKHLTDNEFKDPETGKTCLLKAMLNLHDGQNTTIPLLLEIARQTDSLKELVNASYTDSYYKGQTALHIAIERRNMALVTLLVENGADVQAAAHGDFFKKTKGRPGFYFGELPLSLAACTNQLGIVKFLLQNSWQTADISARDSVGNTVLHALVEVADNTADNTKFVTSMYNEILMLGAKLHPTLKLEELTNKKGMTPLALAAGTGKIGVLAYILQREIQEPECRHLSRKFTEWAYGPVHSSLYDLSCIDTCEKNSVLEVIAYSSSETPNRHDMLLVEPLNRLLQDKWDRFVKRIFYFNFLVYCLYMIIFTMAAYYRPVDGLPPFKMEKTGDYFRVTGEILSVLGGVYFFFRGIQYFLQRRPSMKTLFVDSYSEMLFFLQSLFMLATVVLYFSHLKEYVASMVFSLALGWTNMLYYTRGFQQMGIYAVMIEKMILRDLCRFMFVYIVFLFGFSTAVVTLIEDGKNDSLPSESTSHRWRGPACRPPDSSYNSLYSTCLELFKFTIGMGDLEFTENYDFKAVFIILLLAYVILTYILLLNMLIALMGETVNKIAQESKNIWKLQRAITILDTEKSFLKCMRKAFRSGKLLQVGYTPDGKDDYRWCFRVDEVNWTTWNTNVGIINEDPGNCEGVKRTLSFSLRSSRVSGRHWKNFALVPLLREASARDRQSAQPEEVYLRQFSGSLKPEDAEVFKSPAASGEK
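Fluo-8 calcium influx in TRPV1-expressing cells, kinetic read (ex 480/em 520 nm). Compound added and read 3 min for agonist activity, followed by capsaicin at EC20 final and 2 min further read for enhancement.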
D2 potentiator: positive allosteric modulators of human D2 dopamine receptor | DiscoveRx D2 beta-arrestin cells, luminescence, 90 min; 100% = 57 uM dopamine signal | P14416 | 360,000 compounds, 0.23% hits | potentiation, % (concentration not given with the values); active = potentiation of 50% or more; inconclusive = 30% to 50%; inactive = 30% or less;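 further: tested on top of an EC20 dose of dopamine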
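D2 cells co-treated with compound plus 50 nM dopamine (EC20) for 90 min at 37 deg C to detect potentiation. Beta-arrestin recruitment was read as enzyme-fragment luminescence after 1 h at ambient temperature. Full response was set by 57 uM dopamine.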
Sfp PPTase inh: inhibitors of Bacillus subtilis Sfp phosphopantetheinyl transferase; Potency, µM, for inactives: max response, negative = inhibition, actives largely listed as inhibitors; Q9F4F7; 310,000 compounds, 3.5% hits; Biochemical Sfp PPTase activity, qHTS; active means well fitted inhibition curve with a large enough effect; inconclusive means small, poorly fitted or top-dose-only effect, or another doubt; inactive means no such curve, though single readings can be large or run the other way;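 further: the enzyme is Sfp with the accession as filed and its product quenches rhodamine fluorescence; potency means the concentration at half of the fitted maximal effect; 0% = enzyme reaction without inhibitor and -100% = no enzyme wells; top concentration of the series not given in the record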
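With Hepes-Na pH 7.6 buffer containing 10 mM MgCl2, Sfp (15 nM) modified BHQ-2-YbbR (12.5 uM) using rhodamine-CoA (5 uM). Two reads 30 minutes apart at 525/598 nm yielded each well's rate.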
Numbers without * were called inactive; & = joins results of further samples; [ ] = remark or other dose.

COC(=O)c1ccccc1NC(=O)CCS(=O)(=O)c1ccc(Br)cc1 was read as Menin MLL FP FL -2.7, ClpP mod -3.0%, gsp agonist -23%, gsp antagonist -3%, TRPV1 PAM -4, D2 potentiator -9 and Sfp PPTase inh 1%.
Screening COc1ccc(CCN2C(=O)NC(NS(=O)(=O)c3ccc(NC(C)=O)cc3)(C(F)(F)F)C2=O)cc1OC (stereo unspecified) returned Menin MLL FP FL 2.9, ClpP mod 0.2%, gsp agonist -2%, gsp antagonist 8%, TRPV1 PAM -18, D2 potentiator -2 and Sfp PPTase inh 27%.
For Nc1cc(-c2ccc(Cl)cc2)nn1-c1ccccc1 the results were Menin MLL FP FL -0.4, gsp agonist 20%, gsp antagonist -5%, TRPV1 PAM 15, D2 potentiator 1 and Sfp PPTase inh 3%.
`O=C(CSc1nc2c(c(=O)n1-c1ccc(Cl)cc1)SCC2)NCc1ccco1` gave Menin MLL FP FL 2.8, ClpP mod 0.4%, gsp agonist -23%, gsp antagonist -5%, TRPV1 PAM -35, D2 potentiator 1 and Sfp PPTase inh -14%.
Screening Cn1c(/C=C/c2ccc(Cl)cc2)nc2ccccc2c1=O returned Menin MLL FP FL 0.8, ClpP mod -4.4%, gsp agonist -2%[15.4 µM], gsp antagonist -2%, TRPV1 PAM 3, D2 potentiator -32 and Sfp PPTase inh -7%.
`COCCNC(=S)NC(=O)CC12CC3CC(CC(C3)C1)C2` gave Menin MLL FP FL 4.0, ClpP mod -3.5%, gsp agonist -6%, gsp antagonist 28%, TRPV1 PAM -4, D2 potentiator -3 and Sfp PPTase inh 6%.
Screening Clc1ccc(-c2nnc(SCc3ccon3)o2)c(Cl)c1 returned Menin MLL FP FL -0.1, ClpP mod -1.6%, gsp agonist -4%, gsp antagonist 10%, TRPV1 PAM -2, D2 potentiator -5 and Sfp PPTase inh -4%.
Screening CCC(CC)CN1CCC(CN2C(=O)C(=O)NC[C@@H]2[C@@H](C)CC)CC1 returned ClpP mod -0.4%, gsp antagonist 9% and D2 potentiator -9.
Screening O=C(O)[C@@H](O)[C@H](O)C(=O)O returned ClpP mod -0.2%, gsp antagonist 28% and D2 potentiator -12.
Screening O=C(N/N=C/c1ccccn1)c1ccc(S(=O)(=O)N2CCCCCC2)cc1 returned Menin MLL FP FL -2.3, ClpP mod -16%, gsp agonist -25%, gsp antagonist 5%, TRPV1 PAM -4, D2 potentiator -5 and Sfp PPTase inh 5%.
COc1nc(NCc2cccnc2)nc(NC2CCCCC2)n1 was read as Menin MLL FP FL -8.3, ClpP mod 3.6%, gsp agonist -28%, gsp antagonist 6%, TRPV1 PAM 2, D2 potentiator -4 and Sfp PPTase inh 18%.
CCOc1ccc2ccccc2c1CNc1nnnn1C was read as Menin MLL FP FL -2.1, gsp agonist 20%, gsp antagonist -3%, TRPV1 PAM -3, D2 potentiator -3 and Sfp PPTase inh 19%.
`O=C1CSC(c2ccccc2)N1CC12CC3CC(CC(O)(C3)C1)C2` (stereo unspecified) gave Menin MLL FP FL 2.8, ClpP mod 0.2%, gsp agonist 21%, gsp antagonist -25%, TRPV1 PAM -9, D2 potentiator 7 and Sfp PPTase inh -18%.
For COc1cc(/C=C/C(=O)OCC(=O)NCc2cccs2)ccc1OC(F)F the results were Menin MLL FP FL 6.2, ClpP mod -17%, gsp agonist 2%, gsp antagonist 3%, TRPV1 PAM -3, D2 potentiator -19 and Sfp PPTase inh 10%.
COc1cc(OC)c2ccc(=O)oc2c1C(CC(=O)N1CCCC1)c1ccc(N(C)C)cc1 (stereo unspecified) was read as Menin MLL FP FL 3.3&4.0, ClpP mod -0.4%, gsp antagonist 4%, TRPV1 PAM 24, D2 potentiator -3 and Sfp PPTase inh 10%&3%.
Screening COc1cc(SC#N)ccc1N=Cc1c(C)[nH]n(-c2ccc(C)c(C)c2)c1=O returned Menin MLL FP FL inconclusive, ClpP mod -1.7%, gsp agonist -26%, gsp antagonist 11%, TRPV1 PAM 1, D2 potentiator 6 and Sfp PPTase inh 0%.
For Cc1ccc(CCNS(=O)(=O)c2ccc3c(c2)C(C)(C)C(=O)N3C)cc1 the results were Menin MLL FP FL 0.4, ClpP mod 0.9%, gsp agonist -46%[inhibitor], gsp antagonist -4%, TRPV1 PAM 12, D2 potentiator -3 and Sfp PPTase inh -9%.
`O=C(Oc1cc(Cl)ccc1Cl)C1=CC=CN2CCS(=O)(=O)N=C12` gave ClpP mod 4.7%, gsp agonist -15%, gsp antagonist 0%, TRPV1 PAM 9 and D2 potentiator 1.
Cn1nc(C(=O)OCC(=O)NCc2ccc(Cl)cc2)c2ccccc2c1=O was read as ClpP mod -0.3%, gsp agonist 11%, gsp antagonist -4% and D2 potentiator -4.
Cc1[nH]c2ccc(-c3nnc(SCC(=O)c4ccc(F)cc4)o3)cc2c1C was read as Menin MLL FP FL -3.7, ClpP mod -4.3%, gsp agonist inconclusive, gsp antagonist 5%, TRPV1 PAM inconclusive, D2 potentiator -6 and Sfp PPTase inh 3%.
For CCC[C@H](CN[C@@H](CNC)[C@H](C)O)NCCc1ccc(OC)cc1 the results were Menin MLL FP FL -0.7, ClpP mod -8.7%, gsp agonist 4%, gsp antagonist 14%, TRPV1 PAM -16, D2 potentiator -7 and Sfp PPTase inh 5%.
CC(=O)N1CCN(c2cc(N3CCCC3)c(F)cc2[N+](=O)[O-])CC1 was read as Menin MLL FP FL 1.2, gsp agonist 15%, gsp antagonist -15%, TRPV1 PAM 1, D2 potentiator -8 and Sfp PPTase inh -12%.
CCCOc1ccc(C(F)(F)F)cc1NC(=O)CCc1c(C)noc1C was read as ClpP mod -2.5%, gsp agonist 10%, gsp antagonist -19%, TRPV1 PAM -10 and D2 potentiator 0.
Screening CCC(C)N1C(=O)CCC1C(=O)N1CCN(c2ccc(F)cc2)CC1 (stereo unspecified) returned Menin MLL FP FL 1.4, ClpP mod 0.8%, gsp agonist -24%, gsp antagonist 14%, TRPV1 PAM 10, D2 potentiator -25 and Sfp PPTase inh -4%.
Screening CN(CCOc1ccccc1)CC(=O)Nc1ccc(S(=O)(=O)N2CCCC2)cc1 returned Menin MLL FP FL 27, ClpP mod 0.8%, gsp agonist -7%, gsp antagonist -9%, TRPV1 PAM 4, D2 potentiator 4 and Sfp PPTase inh 56µM*.
COc1cccc(NC(=O)C(Cc2ccccc2)NC(=O)C2CCC(C)CC2)c1 (stereo unspecified) was read as Menin MLL FP FL 0.7, ClpP mod -1.6%, gsp agonist -26%, gsp antagonist 5%, TRPV1 PAM 10, D2 potentiator -3 and Sfp PPTase inh 12%.
Screening CCn1c(SCc2ccccc2F)nnc1-c1ccncc1 returned Menin MLL FP FL -4.8, gsp agonist 14%[15.4 µM], gsp antagonist 1%, TRPV1 PAM 9, D2 potentiator -4 and Sfp PPTase inh 16%.
Screening O=C(COc1ccc(Cl)cc1)NCc1ccccc1 returned Menin MLL FP FL 1.9, ClpP mod 1.1%, gsp agonist -21%, gsp antagonist 5%, TRPV1 PAM -16, D2 potentiator 12 and Sfp PPTase inh 9%.
Screening CC(=O)c1cc(C#N)c(SCCC(C)C)nc1C returned Menin MLL FP FL -1.6, ClpP mod -0.8%, gsp agonist inconclusive, gsp antagonist 2%, TRPV1 PAM 3, D2 potentiator -3 and Sfp PPTase inh -4%.
For O=[N+]([O-])c1cc(Cl)ccc1Sc1cccc2cccnc12 the results were Menin MLL FP FL 2.1, ClpP mod 1.1%, gsp agonist -8%, gsp antagonist 8%, TRPV1 PAM 8, D2 potentiator -3 and Sfp PPTase inh 0%.
Screening CN(C)C(=O)COC(=O)c1cc(Cl)cc(Cl)c1N returned Menin MLL FP FL 0.3, ClpP mod inconclusive, gsp agonist -26%, gsp antagonist 7%, TRPV1 PAM 5, D2 potentiator -7 and Sfp PPTase inh 7%.
`CC1=C(C(=O)N(C)C)C(c2ccc(Cl)c(Cl)c2)NC(=O)N1` (stereo unspecified) gave Menin MLL FP FL 4.2, ClpP mod 0.9%, gsp agonist 6%, gsp antagonist 9%, TRPV1 PAM 7, D2 potentiator -16 and Sfp PPTase inh -13%.
CCOc1ccc(C2=C/C(=C/c3cccnc3)C(=O)O2)cc1 was read as Menin MLL FP FL inconclusive, ClpP mod 0.4%, gsp agonist 28%, gsp antagonist inconclusive, D2 potentiator -29 and Sfp PPTase inh -7%.
Screening Cn1c2c(c(=O)n(C)c1=O)C(NC(=O)c1cccs1)(C(F)(F)F)C(=O)N2 (stereo unspecified) returned Menin MLL FP FL -0.7, ClpP mod 0.0%, gsp agonist 14%, gsp antagonist 0%, TRPV1 PAM 4, D2 potentiator -9 and Sfp PPTase inh 18%.
Cc1cc(C(F)(F)F)n(-c2nc(C(=O)Nc3ccccc3Oc3ccccc3)cs2)n1 was read as Menin MLL FP FL 6.0, TRPV1 PAM 6 and Sfp PPTase inh 21%.
For COc1ccc(C(CNC(=O)c2ccc(-c3nc4ccccc4s3)o2)N2CCCC2)cc1 (stereo unspecified) the results were ClpP mod 3.9%, gsp agonist 11%, gsp antagonist -4%, TRPV1 PAM 5 and D2 potentiator -28.
`O=C(COCC(=O)Nc1cccc(C(F)(F)F)c1)Nc1cccc(C(F)(F)F)c1` gave Menin MLL FP FL -1.5, ClpP mod 2.9%, gsp agonist 11%, gsp antagonist -10%, TRPV1 PAM 9, D2 potentiator -7 and Sfp PPTase inh 13%.
For Cc1[nH]c2ccccc2c1-c1csc(NC(=O)CSCCO)n1 the results were Menin MLL FP FL -2.8, ClpP mod 0.3%, gsp agonist inconclusive, gsp antagonist -17%, TRPV1 PAM 8, D2 potentiator -4 and Sfp PPTase inh 7%.
For COc1ccc(N(C(C)=O)c2nc3ccccc3[nH]2)cc1 the results were Menin MLL FP FL 4.3, ClpP mod 0.2%, gsp agonist 21%, gsp antagonist 9%, TRPV1 PAM inconclusive, D2 potentiator -4 and Sfp PPTase inh 5%.
For CCOC(=O)Cc1nnc(NC(=O)C(CC)Sc2nc(C)cc(=O)[nH]2)s1 (stereo unspecified) the results were Menin MLL FP FL 2.6, ClpP mod -1.3%, gsp agonist -22%, gsp antagonist -1%, TRPV1 PAM 1, D2 potentiator 0 and Sfp PPTase inh 2%.

Screens as filed in PubChem.
